HCMV NEC inh – inhibitors of HCMV UL50-UL53 interaction, biochemical, HTRF | inhibition, % (test concentration not listed) | normalized percent inhibition | 190,000 tested, 0.15% active | HCMV UL50-UL53 nuclear egress complex (human cytomegalovirus);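 active = both replicates at 50% or more, plus weaker picks with an unusually low signal ratio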;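 also: stock transfer was 100 nL into about 20 µL; 0% = negative control wells and 100% = wells with untagged competitor protein; inactives centre near -12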
Sa growth inh – S. aureus growth inhibition at 42 and 30 °C, primary screen, LtaS inhibitor project, RN4220, two temperatures; OD600, 20 h, 42 °C; stronger effect = lower value; relative growth, % (test concentration not listed); 170,000 tested, 0.53% active;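 active = growth at 42 °C up to 50% and 20 or more points under that at 30 °C, or under 10% at both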;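 also: 300 nL library stock went into each well; scaled to the means of positive and negative controls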
GIV Gai3 FP – inhibitors of GIV peptide binding to Galpha-i3, primary screen, biochemical, fluorescence polarization, FITC-GIV GBA peptide, rat Galphai3; percent of control (FP), % (no concentration beside the values); 210,000 tested, 0.42% active; AID 1224905, 2016; 90 min; stronger effect = lower value; scaled: aluminum fluoride 0%, vehicle 100%;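 active = replicate mean at 85% of control or lower, very high polarization wells dropped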;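 also: wells of about 15 µL received 100 nL stock; the first replicate is given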
Target sequence (P08753 whole entry, looked up): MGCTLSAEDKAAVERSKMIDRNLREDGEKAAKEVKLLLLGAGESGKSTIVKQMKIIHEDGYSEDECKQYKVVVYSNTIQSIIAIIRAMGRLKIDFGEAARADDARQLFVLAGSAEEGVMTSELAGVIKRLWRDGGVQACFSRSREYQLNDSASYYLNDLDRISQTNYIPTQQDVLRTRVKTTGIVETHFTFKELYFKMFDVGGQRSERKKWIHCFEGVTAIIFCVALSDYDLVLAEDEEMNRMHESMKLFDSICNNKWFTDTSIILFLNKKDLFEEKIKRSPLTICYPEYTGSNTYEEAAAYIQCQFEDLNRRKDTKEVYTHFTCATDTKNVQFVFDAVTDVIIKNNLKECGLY
Sa growth inh second temp – recorded beside Sa growth inh, whose call it bears; relative growth, %; measured here: growth at 30 °C;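 optical density after 20 h as mean of two plates; 100% = untreated growth and lower means inhibition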
An asterisk follows results filed as active; . = not tested or not shown; & = joins results of further samples. An unsorted share of the library; any-hit rate near 0.83%.

SMILES	HCMV NEC inh	Sa growth inh	Sa growth inh second temp	GIV Gai3 FP
c1ccc2c(c1)CN1CCCCN1C2	-41	106	82	110
Cc1ccc(Cl)cc1N1CCN(C(=O)C2CCN(c3nc4ccccc4n4cccc34)CC2)CC1	-10	.	.	101
CCOc1ccccc1CNC(=O)CCCn1c(=O)c2cccn2c2cccnc21	.	90	83	104
O=S(=O)(NC1CC1)c1cccs1	-5	111	70	101
ClCc1nnc(-c2ccccc2)o1	0	91	82	.
CCCCn1c2c(c(=O)n(C)c1=O)C(c1ccc(OC)cc1)C1=C(CCCC1=O)N2 (stereo not given)	-3	106	87	.
O=C(O)c1cc(Br)ccc1N=Cc1nc(-c2ccc(Cl)cc2)oc1O	-14	.	.	101
O=S(=O)(c1ccc2c(c1)OCCO2)N1CCCC1c1ccc(Cl)cc1 (stereo not given)	-22	.	.	104
Cc1ccc(CNC(=O)NCc2c(C)nn(C)c2C)cc1	-34	106	87	108
COc1cc(CNCCSc2nnnn2C)ccc1OCc1ccccc1C	-19	112	91	107
Clc1ccc(COn2nnc3ccccc32)cc1	-2	97	84	99
COc1ccc2oc(C(=O)OCc3cccc(S(=O)(=O)N4CCOCC4)c3)c(C)c2c1	7	111	100	.
Cc1ccccc1NC(=O)CSCc1ccccc1	-34	91	87	97
C/C(=N\O)C(C)(C)Nc1ccccc1	24	89	91	100
O=C(c1ccc(Cl)cc1)N1CCCCC1CCN1CCOCC1 (stereo not given)	-5	92	94	110
CCC(=O)N1CCc2cc(S(=O)(=O)CCC(=O)N3CCN(c4cccc(C)c4C)CC3)ccc21	-19	105	90	103
Cc1cc(C)cc(Nc2ncccc2N)c1	-5	.	.	104
FC(F)(F)c1cccc(-n2c(Cn3nnc(N4CCOCC4)n3)n[nH]c2=S)c1	-38	96	89	99
COc1ccc(S(=O)(=O)NCc2nc3nc(C)cc(C)n3n2)cc1OC	0	106	91	103
CN(C(=S)NC(=O)c1ccccc1)c1ccc(OC(F)(F)F)cc1	-5	71	11	103
Nc1c(C(=O)NCc2cccs2)nnn1CC(=O)Nc1cccc(F)c1	-3	99	71	110
COc1cc(C(F)(F)F)cc(C(F)(F)F)c1C(=O)N1CCC(C(=O)c2ccc(Cl)cc2)CC1	-44	92	88	102
Cc1ccc(NC(=O)Cn2c(=O)ccc3cc(S(=O)(=O)N4CCCC4)ccc32)cc1N(C)C	.	101	95	108
Cc1cc(N2CCC(C)CC2)nc2ccc(NC(=O)CCC(=O)N3CCN(c4ccccc4F)CC3)cc12	-27	97	75	107
Cc1ccc(S(=O)(=O)N2CCN(S(=O)(=O)c3ccc(C)cc3)C2)cc1	.	99	92	103
CC1=C(c2ccc(C)c(C)c2)S(=O)(=O)N(Cc2ccc(C(=O)Nc3cc(F)ccc3F)cc2)C1=O	.	105	90	105
CS(=O)(=O)N1Cc2ccccc2CC1C(=O)OCC(=O)Nc1ccc(OC(F)(F)F)cc1 (stereo not given)	3	83	100	.
Cc1nn(CCCC(=O)NCc2ccc(F)cc2)c(=O)c2c1sc1ccccc12	-21	105	91	103
CCOC(=O)C1=C(C)OC(N)=C(C#N)C1c1ccccc1 (stereo not given)	-30	.	.	106
COc1ccc(-n2nnnc2C2CCN(S(=O)(=O)c3cccc(Cl)c3C)CC2)cc1	-40&-13	94	86	95&108
O=C(Nc1cccc(-c2nc3ccccc3o2)c1)c1ccc(N2C(=O)C3C4C=CC(C4)C3C2=O)cc1 (stereo not given)	-7	.	.	103
CCc1ccc(C(=O)c2cn(CC(=O)Nc3cc(F)ccc3F)c3nc(C)ccc3c2=O)cc1	.	117	103	106
Cc1nc2n(C)c3ccccc3n2c1C(=O)OCCN1CCCCC1	-2	105	89	98
O=C(Nc1nc2c(s1)CCCC2)c1ccc(S(=O)(=O)N2CCc3ccccc3C2)cc1	-36	.	.	102
CCOC(=O)c1c(NC(=O)c2cc(-n3cnnc3)ccc2Cl)sc2c1CCCC2	-12	107	95	106
CC1CCN(C(=O)C(C)NCc2ccc(F)cc2)CC1 (stereo not given)	-3	83	94	97
N#CCn1c(=O)n(Cc2ccccc2)c(=O)c2cccnc21	.	105	95	103
Cc1ccc(OCc2cc(=O)n3ccsc3n2)cc1C	-25	.	.	92
Cc1ccc(-c2cc(C(F)(F)F)n3nc(C(=O)Nc4sc5c(c4C#N)CCC(C)C5)cc3n2)cc1 (stereo not given)	5	93	93	102
COc1ccc(CCNC(=O)c2ccc3c(=O)n(CC4CCCO4)c(=S)[nH]c3c2)cc1OC (stereo not given)	.	111	93	108
Cc1cc(NC(=O)c2ccccc2F)cc(C)c1OCC(=O)N1CCOCC1	-9	104	102	111
O=c1[nH]c2ccc(Cl)cc2c(-c2ccccc2)c1N1CCCC1	-9	114	85	.
COc1cccc(-n2nnnc2S(=O)(=O)Cc2ccccc2)c1	.	-1.1*	-0.5*	100
CC1Cc2ccccc2N1CC(=O)Nc1ccccc1Cl (stereo not given)	-12	91	91	.
CCCCC1(C)OC(=O)C(=Cc2ccc(O)cc2)C(=O)O1 (stereo not given)	14	111	79	107
CC1CCC(N2CCN(Cc3cccc(F)c3)CC2)CC1 (stereo not given)	4	91	93	102
Cn1ncc(Br)c1N1C(=O)CCC1=O	-5	96	90	106
CCc1ccc(-c2nn(Cc3ccccc3)cc2CN2CCN(CC(=O)N3CCOCC3)CC2)cc1	-23	75	88	.
Cc1ccc(/C=C2\C(=O)N(c3ccccc3C)C(=O)c3ccccc32)o1	-18	96	101	.
Cc1ccccc1NC(=O)Cn1nnc(C(=O)NCc2ccco2)c1N	-12	103	86	104
Going on with the list.
SMILES	HCMV NEC inh	Sa growth inh	Sa growth inh second temp	GIV Gai3 FP
Cc1ccc(S(=O)(=O)c2nnn3c2nc(NCc2cccs2)c2sccc23)cc1C	.	100	84	103
c1ccc(CN2CCC(=NNc3nncc4ccccc34)CC2)cc1	-57	80	90	.
COc1cc(Br)cc2cc(-c3nc(-c4nonc4N)no3)c(=O)oc12	-36	113	89	106
CC(C)Oc1ccc(-c2nn(-c3ccccc3)cc2/C=C(\C#N)S(=O)(=O)c2ccccc2)cc1	.	107	97	98
CCCCNC(=O)c1c(C)oc2ncn(CC(C)C)c(=O)c12	.	101	99	114
CCCCN1CCc2c([nH]c3c(C)cccc23)C1=O	.	100	88	104
CC(=O)N1CCC(c2nc(-c3cccs3)no2)CC1	-4	91	93	107
CC(C)NC(=O)c1ccc2c(=O)n(CCc3ccccc3)c(SCC(=O)c3ccc(F)cc3)nc2c1	6	.	.	102
O=C(Nc1c(C(=O)c2ccccc2)oc2ccccc12)c1ccccc1Cl	-4	.	.	94
Cc1c(C=C2C(=O)c3ccccc3C2=O)cc(C#N)n1C	-34	103	87	.
COc1ccc(-c2cc(C(=O)NCCN3CCCCCC3)[nH]n2)cc1	-26	95	76	108
Cc1nc2c3ccccc3nc(NN3C(=O)CCC3=O)n2n1	.	99	91	103
COc1ccccc1C(=O)CSc1ccccn1	-31	119	83	.
COc1ccc(OCCn2cnc3ccccc32)cc1	-21	87	83	100
O=C(CC12CC3CC(CC(C3)C1)C2)Nc1cccc(-c2nn3cnnc3s2)c1	-8	81	85	.
CC(C)c1ccc(NC(=O)C2CCCN2S(=O)(=O)c2ccc3nc(-c4ccccc4)[nH]c3c2)cc1 (stereo not given)	.	94	94	107
COc1ccc(NC(=O)c2sc3nc(C)nc(N(C)c4ccc(C(C)C)cc4)c3c2C)c(OC)c1	.	81	90	97
O=C(O)CSc1c2c(nc3cc(C(=O)Nc4cccc(C(F)(F)F)c4)ccc13)CCCC2	.	107	92	100
O=C(Cc1ccc(NC(=O)N2CCCCc3ccccc32)cc1)NCC1CCCO1 (stereo not given)	-18	.	.	107
COc1cccc(NC(=O)Cn2c(C)cc(C)c(C#N)c2=O)c1	.	104	82	101

Looked up by compound from the entries so far, 4 records:
SMILES	HCMV NEC inh	Sa growth inh	Sa growth inh second temp	GIV Gai3 FP
COc1ccc(OCCn2cnc3ccccc32)cc1	-21	87	83	100
Cc1nc2c3ccccc3nc(NN3C(=O)CCC3=O)n2n1	.	99	91	103
O=C(O)CSc1c2c(nc3cc(C(=O)Nc4cccc(C(F)(F)F)c4)ccc13)CCCC2	.	107	92	100
O=C(Cc1ccc(NC(=O)N2CCCCc3ccccc32)cc1)NCC1CCCO1 (stereo not given)	-18	.	.	107

Other records
SMILES	HCMV NEC inh	Sa growth inh	Sa growth inh second temp	GIV Gai3 FP
O=C(COC(=O)/C=C/c1cccs1)Nc1ccccc1	-51	101	88	.
CCC(C)/C(=N\O)c1ccccc1 (stereo not given)	-20	100	102	102
CC(C)(C)c1cc(CCC(=O)NN)cc(C(C)(C)C)c1O	.	94	89	103
Cc1c(NS(=O)(=O)c2cccc(C(=O)N3CCN(c4ccccc4F)CC3)c2)c(=O)n(-c2ccccc2)n1C	12	108	106	.
O=C(NC1C2CC3CC(C2)CC1C3)c1cccnc1Cl (stereo not given)	-37	108	82	.
CCOC(=O)c1scc(-c2ccc(C)cc2)c1S(=O)(=O)Nc1cccc(CC)c1	.	105	88	101
COc1cccc(/C=C2/SC(=O)N(C)C2=O)c1O	-111	83	78	99
CCC(=O)N1CCCC1c1nc2ccccc2n1CCCCOc1cccc(OC)c1 (stereo not given)	-6	.	.	105
N#Cc1c(=O)c2nc(NCCc3ccccc3)ncc2n2c(=O)c3cc(Br)ccc3[nH]c12	-61	154	96	.
NC(CO)(CO)COCc1ccccc1	-10	141	88	.
Cc1ccc(-n2ncc3c(N4CCN(Cc5ccccc5)CC4)ncnc32)cc1C	.	115	93	104
CCCCN(CC)CCCNC(=O)c1sc2nc(C)cc(C)c2c1-n1cccc1	13	106	92	98
O=c1oc2ccc(Cl)cc2c(=O)n1-c1cccc(C(F)(F)F)c1	.	-0.7*	-0.3*	95
O=C(Nc1ccc2c(c1)OCO2)N1CCC(n2cnc3cccnc32)CC1	2	.	.	97
Cc1nc(-c2noc(-c3ccc(C(F)(F)F)cc3)n2)cs1	5	103	102	108
CCCc1nc(C(C#N)c2ccc(F)cc2)c2nnn(Cc3ccccc3)c2n1 (stereo not given)	-2	80	100	100
N#CC1=C(SCC(N)=O)NC2=C(C(=O)CCC2)C1c1ccco1 (stereo not given)	-54	84	85	103
Clc1ccc(Nc2ncnc3c2cnn3-c2ccccc2)cc1	.	106	66	101
COC(=O)c1ccc(-c2nc3ccccc3[nH]2)cc1	-10	106	100	.
COc1ccc(-c2nc3ccc(NS(C)(=O)=O)cc3o2)cc1	-27	100	82	101
CCOc1ccc(C(=O)Nc2ccc(S(=O)(=O)N3CCCCC3c3cccnc3)cc2)cc1 (stereo not given)	.	124	98	103
COC(=O)c1n[nH]n(-c2cc(Cl)cc(Cl)c2)c1=O	-6	90	88	97
C=CCNC(=O)c1cc2c(=O)n3ccccc3nc2s1	-96	109	87	.
COc1cc(-c2nnc(SCc3cc(=O)oc4ccc5ccccc5c34)o2)cc(OC)c1OC	-19	102	93	.
COc1ccc(NC(=O)Cn2c(=O)n(Cc3nc(-c4ccccc4)no3)c(=O)c3cc4c(cc32)OCO4)cc1Cl	.	113	95	107
CNS(=O)(=O)c1ccc2oc3ccc(S(=O)(=O)NC)cc3c2c1	.	126	95	97
Clc1ccc(-c2ccc(CNC3CC3)o2)c(Cl)c1	-6	.	.	107
Cc1ccc(NC(=O)C2CCN(C(=O)c3cnn(-c4ccccc4)c3-n3cccc3)CC2)cc1Cl	-18	97	67	96
Cc1ccc2ccc3cc(C(=O)NCC4CCCO4)nc3c2[nH]1 (stereo not given)	-2	.	.	108
O=C(CC1CCN(S(=O)(=O)c2ccccc2)CC1)NCCN1CCCCC1	2	.	.	104
Cc1ccc2cc(CN(CC3CCCO3)C(=O)C3CCC3)c3nnnn3c2c1 (stereo not given)	0	93	88	104
CCN(CC)CCN=Cc1c(O)n(-c2ccccc2Cl)c(=O)c2ccccc12	-68	113	93	.
O=c1nc(SCc2ccc(Cl)cc2)c2c(n1CCc1ccccc1)CCC2	-24	.	.	101
Cc1onc(-c2ccccc2)c1C(=O)N1CCN(C(=O)C2COc3ccccc3O2)CC1 (stereo not given)	-3	104	94	109
CN(C)c1ccc(/C=N/NC(=S)NC(C)(C)C)cc1	-24	93	89	105
O=C(Cn1cnc2c(oc3ccccc32)c1=O)NCCc1ccccc1	-36	109	87	.

Of the compounds above, these contain an aryl thioether with sulfur outside any ring.
SMILES	HCMV NEC inh	Sa growth inh	Sa growth inh second temp	GIV Gai3 FP
COc1cc(CNCCSc2nnnn2C)ccc1OCc1ccccc1C	-19	112	91	107
CC(C)NC(=O)c1ccc2c(=O)n(CCc3ccccc3)c(SCC(=O)c3ccc(F)cc3)nc2c1	6	.	.	102
COc1ccccc1C(=O)CSc1ccccn1	-31	119	83	.
O=C(O)CSc1c2c(nc3cc(C(=O)Nc4cccc(C(F)(F)F)c4)ccc13)CCCC2	.	107	92	100
COc1cc(-c2nnc(SCc3cc(=O)oc4ccc5ccccc5c34)o2)cc(OC)c1OC	-19	102	93	.
O=c1nc(SCc2ccc(Cl)cc2)c2c(n1CCc1ccccc1)CCC2	-24	.	.	101
